EPAC1 ag val – validation of human EPAC1 agonists. O95398. EPAC1 Rap1b BODIPY-GDP exchange, fluorescence. Potency, µM, inactives show max response, positive = active, most hits filed as activators. 1% of 16,000 active; active = well fitted activation curve with a large enough effect; inconclusive = small, poorly fitted or top-dose-only effect; inactive = no such curve, though single readings can be large or run the other way;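 note: nearly all actives have a fitted effect of over 70% in size; series mostly up to about 76 or 150 µM; scaled to a cAMP control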
Target sequence (O95398 whole entry, looked up): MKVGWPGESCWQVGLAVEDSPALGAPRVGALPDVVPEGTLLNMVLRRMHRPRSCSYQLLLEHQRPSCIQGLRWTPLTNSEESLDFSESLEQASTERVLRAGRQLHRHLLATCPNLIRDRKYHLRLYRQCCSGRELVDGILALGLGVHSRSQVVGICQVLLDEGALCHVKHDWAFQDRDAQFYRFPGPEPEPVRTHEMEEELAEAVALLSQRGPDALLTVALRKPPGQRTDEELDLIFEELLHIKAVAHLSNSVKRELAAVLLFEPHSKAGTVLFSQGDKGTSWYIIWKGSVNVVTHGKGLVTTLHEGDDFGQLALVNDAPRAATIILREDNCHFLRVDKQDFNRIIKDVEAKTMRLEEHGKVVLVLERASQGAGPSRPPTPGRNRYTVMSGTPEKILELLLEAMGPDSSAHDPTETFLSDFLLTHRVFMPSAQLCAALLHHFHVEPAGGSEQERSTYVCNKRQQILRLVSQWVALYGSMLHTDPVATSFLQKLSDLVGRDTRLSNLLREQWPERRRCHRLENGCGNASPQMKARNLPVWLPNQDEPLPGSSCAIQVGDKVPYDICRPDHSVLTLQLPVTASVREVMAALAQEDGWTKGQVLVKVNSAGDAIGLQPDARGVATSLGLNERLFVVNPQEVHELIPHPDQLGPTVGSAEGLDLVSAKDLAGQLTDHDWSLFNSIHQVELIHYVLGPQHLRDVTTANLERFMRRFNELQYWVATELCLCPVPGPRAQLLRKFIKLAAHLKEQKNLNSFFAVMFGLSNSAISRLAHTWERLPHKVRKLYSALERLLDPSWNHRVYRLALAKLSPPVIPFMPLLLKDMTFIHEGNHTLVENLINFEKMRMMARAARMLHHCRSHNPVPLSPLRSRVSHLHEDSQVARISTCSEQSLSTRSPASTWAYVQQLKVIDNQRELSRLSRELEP
Active calls of the source: *; ? = inconclusive; & = joins results of further samples; [ ] = remark or other dose. % is set by controls: 0 for no effect and ±100 for the full control effect; potency is the fitted concentration of half-maximal effect. Some of the compounds tested. The share of hits here may be higher or lower than overall.

molecule,EPAC1 ag val
CCCCCCCCCCCCCC(=O)N[C@H](C)[C@@H](O)c1ccccc1,-27%
c1ccc2cc(C3=NCCN3)ncc2c1,20%
COCC1CCCN(Cc2ccc3c(c2)CN(C(=O)c2ccc(OC)nc2OC)CCO3)C1 (stereo not drawn),2%
CC(C)(O)[C@@H]1CCC[N+]2(C)CCCC[C@H]12 (stereo partly drawn),-29%
Cc1ccc2nc(/C=C/c3ccc(N(C)C)cc3)ccc2c1,?
O=c1[nH]c2cc(Cl)ccc2c(O)c1-c1ccc(Oc2ccccc2)cc1,-8%
Cc1cc(C(=O)NCC2CCC3(CCN(Cc4ccc(F)cc4)CC3)O2)n(C)n1 (stereo not drawn),-7%
CCN(CC)CCOCCOC(=O)C(CC)(CC)c1ccccc1,-11%
COc1cc(CN2CCOc3ccc(CN4CCC(O)(c5cccnc5)CC4)cc3C2)cc(OC)c1,2%
CS(=O)(=O)N1CCC2(CCN(Cc3ccc(C#N)cc3)CC2)CC1,-87%[inhibitor]
Cc1ccc2cc(CNC(C)CO)c(N3CCC(O)CC3)nc2c1 (stereo not drawn),5%
c1cn(-c2cc(-c3ccc4c(c3)OCO4)ncn2)cn1,3%
CC(=O)NCCNc1nc(-c2ccccc2C)nc2ccccc12,-12%
O=C(C[n+]1ccc2ccccc2c1)c1ccc(F)cc1,4%
CC1=CC(=O)CC(C)(C)C1(O)/C=C/C(C)=C/C(=O)O (stereo not drawn),-10%
CC(=O)Oc1cc2c(s1)CCN(C(C(=O)C1CC1)c1ccccc1F)C2 (stereo not drawn),5%
c1ccc2c(c1)CC(N1CCN(c3cccc4c3OCCO4)CC1)C2,13%
C[C@@H]1OC(OC2CC[C@@]3(C)C(CC[C@@]4(C)C3CC=C3C5CC(C)(C)CC[C@]5(C(=O)OC5OCC(O)[C@@H](O)[C@@H]5OC5O[C@@H](C)[C@H](O[C@H]6OC(CO)C(O)C(O)C6O)C(O)C5O)C(O)C[C@@]34C)C2(C)C)C(O)C(O)[C@H]1OC1OCC(O)C(O)[C@H]1O (stereo partly drawn),-11%
O=P(O)(O)C(O)c1ccc2ccccc2c1 (stereo not drawn),-14%
COc1ccccc1CN1CCC2(CC1)CCN(C(=O)c1ccncc1)CC2,-30%
COc1cc2c(Cc3c4c5c(cc(OC)c(OC)c5c5c(OC)c(OC)ccc35)CCN4C)c3c4c(cc(OC)c(OC)c4c2cc1OC)CCN3C,1%
Nc1nc(Nc2ccccc2)nc2c1ncn2[C@@H]1O[C@H](CO)[C@@H](O)[C@H]1O,1%
Cc1ccc(CN2C[C@H](Sc3ccccn3)C[C@H]2C(=O)Nc2ccc3sc(C)nc3c2)cc1,-3%
CN(C)c1ncc2ncc(=O)n(Cc3cccs3)c2n1,-6%
O=C(c1ccco1)N1CCC2(CCCN(c3ccncc3)C2)CC1,-81%[inhibitor]
CCNc1ncc2nc(-c3cc(F)cc(F)c3)c(=O)n(CCC#N)c2n1,?
CC1(C(=O)O)NCCc2cc(O)c(O)cc21 (stereo not drawn),-17%
COc1cc(O)c2c(=O)cc(C)oc2c1CC=C(C)C,?
C[C@@H]1CN(Cc2ccc3c(c2)CN(Cc2coc4ccccc4c2=O)CCO3)C[C@H](C)O1,-8%
CCCCCCCC(=O)O,4%
O=c1cnc2cnc(Oc3cccc(Cl)c3)nc2n1C1CC1,-52%[inhibitor]
CN=C(NC#N)NCCSCc1csc(N=C(N)N)n1,-2%&18%
O=c1cnc2cnc(N3CCNCC3)nc2n1Cc1cccs1,-6%
COc1ccc(NC(=O)N2CC3(CCNCC3)C2)cc1,25%
COc1cc(COc2cc(N)c(Cl)cc2C(=O)CCC2CCN(CCNS(C)(=O)=O)CC2)cc(OC)c1,-4%&-10%
O=C(O)c1ccc(OCCn2ccnc2)cc1,-16%
O=c1cnc2cnc(N3CCOCC3)nc2n1C[C@H]1CCCO1,-45%[inhibitor]
CCC(/C=C/C(C)C1CCC2C3CCC4=CC(=O)CC[C@@]4(C)C3CC[C@@]12C)C(C)C (stereo partly drawn),11%
Cc1c(C(=O)N2CCCC2)sc2ncnc(NCCc3ccccn3)c12,2%
CC1(C)CC[C@]2(C(=O)O)CC[C@@]3(C)C(=CCC4[C@@]5(C)CCC(O)C(C)(C)C5CC[C@@]43C)C2C1 (stereo partly drawn),-50%[inhibitor]
COC(=O)[C@@H]1[C@H]2SC(C)(C)[C@H](C(=O)OC)N2C(=O)N1Cc1cc2ccccc2n1S(=O)(=O)c1ccccc1,?
COc1ccc(/C=C/C(=O)c2ccc(C)s2)cc1,?
COC(=O)c1c(OCc2ccccn2)cc(=O)n2c1CCN(Cc1cccc(C(F)(F)F)c1)CC2,-4%
CSc1ccc(C(=O)N2CCc3c(cnc(C)c3CNC(=O)c3cncs3)C2)cc1,1%
CSc1ncccc1C(=O)NCC1Cc2cc(F)cc(-c3cncnc3)c2O1 (stereo not drawn),-26%
COc1ccc(-c2oc3cc(OC)c(OC(C)=O)c(OC)c3c(=O)c2OC)cc1OC(C)=O,-14%
CCCC(CCC)C(N)=O,-2%
COC(=O)N1CCC2(CC1)CN(c1ccccc1)C2,?
CCC(=O)N[C@@H]1Cc2ccccc2[C@@H](c2ccccc2)C1,-23%
NS(=O)(=O)c1cc(C(=O)O)cc(N2CCCC2)c1Oc1ccccc1,-12%

Additional records.
molecule,EPAC1 ag val
COc1cc(NS(=O)(=O)c2ccc(N)cc2)nc(OC)n1,-9%&-6%
O=c1c(O)c(-c2ccc(O)c(O)c2)oc2c(OC[C@@H]3O[C@@H](O)[C@@H](O)[C@H](O)[C@H]3O)c(O)cc(O)c12,20%
COC(=O)c1ccc(C(=O)N2CCc3c(C(=O)NC(C)c4ccco4)c(OC)cc(=O)n3CC2)cc1 (stereo not drawn),-5%
Cc1cnc(CNc2ccnc(-c3ccoc3)n2)cn1,-46%[inhibitor]
NC(N)=NC(=O)c1nc(Cl)c(N2CCCCCC2)nc1N,-5%&23%
O=C(NC1CCCCC1)[C@@H]1CC=C[C@@H]2CCN(C3CCCCC3)C(=O)[C@@H]21,24%
COc1cccc(-c2nc(NC3CC3)c3ccccc3n2)c1,16%
COc1cccc(CN(CC(=O)NCc2ccccc2)S(=O)(=O)CCl)c1,4%
COC(=O)N1CCC[C@@]2(CCN(c3ncccn3)C2)C1,-43%[inhibitor]
O=C(O)Cc1ccc(OCCNC[C@H](O)c2ccccc2)cc1,20%
Cc1cn([C@H]2C[C@H](F)[C@@H](CO)O2)c(=O)[nH]c1=O,-6%
CS(=O)(=O)NC(=O)CCC/C=C\C[C@H]1C(=O)C[C@@H](O)[C@@H]1/C=C/[C@H](O)COc1ccccc1,-1%
CCCCC/C=C\C/C=C\CCCCCCCC(N)=O,-14%
COc1cc2cc[n+]3cc4c(OC)c(OC)ccc4cc3c2cc1OC,15%
O=C(N[C@H]1CCC(=O)N([C@H](CSc2ccccc2)Cc2ccccc2)CC1)OCc1ccccc1,?
COc1ccc(CN2CC[C@H]3C=CC[C@@H](C(=O)Nc4ccc(Cl)c(C(F)(F)F)c4)[C@H]3C2=O)cc1OC,-23%
O=S(=O)(c1ccccc1)N1CCC2(CC1)CN(Cc1nccs1)C2,-4%
CCOC(=O)[C@@]12C[C@@H]1/C(=N/O)c1ccccc1O2,8%
CCOC(=O)C1OC1C(=O)NC(CC(C)C)C(=O)NCCC(C)C (stereo not drawn),-17%
FC(F)(F)c1cc(CN2CC[C@@]3(CCCNC3)C2)cc(C(F)(F)F)c1,-84%[inhibitor]
C[N+]1(CC(=O)c2cccc([N+](=O)[O-])c2)CCOCC1,11%
Cc1noc(C)c1C(=O)N1CCC2(CCCN(Cc3ccccc3)C2)CC1,23%
CC1NC(C(=O)O)Cc2c1[nH]c1ccccc21 (stereo not drawn),-15%
NCCCCCCNS(=O)(=O)c1cccc2c(Cl)cccc12,15%&-8%&-25%
CN(C)c1ncc2nc(-c3ccccc3)c(=O)n(CCC#N)c2n1,12%
Cc1cn([C@H]2C=C[C@@H](CO)O2)c(=O)[nH]c1=O,1%&-5%
NCCC(=O)N[C@H](Cc1cnc[nH]1)C(=O)O,29%
COc1cc2c(cc1O)C(Cc1ccc(O)cc1)N(C)CC2 (stereo not drawn),-16%
CCOc1nc2cccc(C(=O)O)c2n1Cc1ccc(-c2ccccc2-c2nn[nH]n2)cc1,10%
COc1cc(-c2cc(=O)c3c(O)c(OC)c(OC)c(OC)c3o2)cc(OC)c1OC,13%
C[N+](C)(C)CCC(=O)c1cccc2ccccc12,0%
CC(C)c1c(C(=O)NCCN2CCOCC2)cnn1-c1nccc(-c2cccs2)n1,-1%
Nc1ncnc2c1nc(Sc1ccc(Cl)cc1)n2[C@H]1OC2COP(=O)(O)O[C@@H]2C1O (stereo partly drawn),0.18µM*
COC(=O)/C(=C1\OC(=O)C(c2ccccc2)C1=O)c1ccccc1 (stereo not drawn),11%
CC(=O)NS(=O)(=O)c1ccc(N)cc1,-12%&-8%
Nc1nc2c(ncn2COC(CO)CO)c(=O)[nH]1,-5%&-43%
COc1ncc2nc(-c3cccs3)c(=O)n(Cc3ccc(F)cc3)c2n1,?
O=C(c1cnccn1)N1CCC2(CCCN(c3ccccc3)C2)CC1,-40%[inhibitor]
CCC(=O)N1CCN(C(=O)c2ccccc2)CC1,-8%
CC(=O)c1ccc(F)c(-c2cc(C)cc3c2OC(CNC(=O)Cn2nc(C)nc2C)C3)c1 (stereo not drawn),-3%
COc1ccccc1-c1ccnc(-n2ncc(C(=O)NC(c3cccnc3)C(F)(F)F)c2C)n1 (stereo not drawn),4%
Cc1c(C(=O)NC(C)(C)CO)sc2ncnc(NCCN(C)C)c12,-4%
CCCN1CCC(=O)N([C@H](COc2ccccc2)Cc2ccccc2)CC1,5%
Cc1c(C(=O)NCC2CCCN(C)C2)cnn1-c1ncc2c(n1)-c1ccccc1CCC2 (stereo not drawn),-3%
CC1(C)S[C@@H]2[C@H](N=CN3CCCCCC3)C(=O)N2[C@H]1C(=O)O,-12%
CC(C)(CO)[C@@H](O)C(=O)NCCC(=O)NCCSSCCNC(=O)CCNC(=O)[C@H](O)C(C)(C)CO,-23%
Cc1noc(C)c1C(=O)N1CCC2(CCN(Cc3ccc(C#N)cc3)CC2)CC1,?
COc1ccc(CNc2ncnc3ccc(-c4ccccc4C#N)cc23)c(OC)c1,?
NC[C@@H]1CC[C@@H](N)[C@@H](O[C@H]2[C@H](O)[C@@H](O[C@H]3O[C@H](CO)[C@@H](O)[C@H](N)[C@H]3O)[C@H](N)C[C@@H]2N)O1,?
C[C@H](O)C(=O)C1=Nc2c(nc(N)[nH]c2=O)NC1,?

(cont.)
molecule,EPAC1 ag val
COc1ccc(CNc2nc(-c3cccnc3)nc3ccccc23)c(OC)c1,?
O=C(NC1CC1)[C@@H]1C[C@@H](Sc2nc3ccccc3[nH]2)CN1CC1CCCCC1,5%
O=C(NCCN1CCOCC1)c1cnn(-c2nccc(-c3cccs3)n2)c1C1CC1,-11%
Oc1cccc(O)c1O,-7%
CC(=O)N1CCN(c2nc3cc(C)ccc3cc2CN(C(=O)c2cccc3ccccc23)C2CC2)CC1,10%
CC(O)[C@H]1CC[C@H]2[C@@H]3CC[C@@H]4C[C@@H](O)CC[C@]4(C)[C@H]3CC[C@]12C (stereo partly drawn),19%
CCCCCCCC/C=C\CCCCCCCC(=O)OCC(CO)OC(=O)CCCCCCC/C=C\CCCCCCCC (stereo not drawn),-7%
O=C(Oc1ccccc1)N1CCC2(CC1)CN(c1ccncc1)C2,?
COC(=O)C[C@H]1c2cc(C(F)(F)F)ccc2S(=O)(=O)N1C1CCCC1,-34%[inhibitor]
O=C(NCC1(N2CCCCC2)CCCC1)c1cnn(-c2nccc(-c3cccs3)n2)c1C1CC1,-14%
O=C(OC1Cc2c(O)cc(O)cc2OC1c1cc(O)c(O)c(O)c1-c1c(C2Oc3cc(O)cc(O)c3CC2OC(=O)c2cc(O)c(O)c(O)c2)cc(O)c(O)c1O)c1cc(O)c(O)c(O)c1 (stereo not drawn),13%
OCC1OC(n2cnc3c(Cl)ncnc32)C(O)C1O (stereo not drawn),-36%[inhibitor]
CN(C)CCCSC(=N)N,?
C[C@@H]1CN(c2c(F)c(N)c3c(=O)c(C(=O)O)cn(C4CC4)c3c2F)C[C@H](C)N1,-4%
CCCCNC(=O)O[C@H]1C[C@@H]2CCN3C(=O)CCC[C@H]([C@H]1Cc1ccccc1)[C@H]23,-2%
O=c1c(-c2ccc(Cl)cc2)nc2cnc(Nc3ccccc3)nc2n1C[C@H]1CCCO1,7%
c1ccc(CNc2nc(-c3ccc4c(c3)OCO4)nc3ccccc23)cc1,?

Copied from the list.
CC1(C(=O)O)NCCc2cc(O)c(O)cc21 (stereo not drawn) | EPAC1 ag val: -17%
Cc1ccc2cc(CNC(C)CO)c(N3CCC(O)CC3)nc2c1 (stereo not drawn) | EPAC1 ag val: 5%
NC(N)=NC(=O)c1nc(Cl)c(N2CCCCCC2)nc1N | EPAC1 ag val: -5%&23%
O=S(=O)(c1ccccc1)N1CCC2(CC1)CN(Cc1nccs1)C2 | EPAC1 ag val: -4%
CCCN1CCC(=O)N([C@H](COc2ccccc2)Cc2ccccc2)CC1 | EPAC1 ag val: 5%
CN(C)c1ncc2nc(-c3ccccc3)c(=O)n(CCC#N)c2n1 | EPAC1 ag val: 12%
CCC(=O)N1CCN(C(=O)c2ccccc2)CC1 | EPAC1 ag val: -8%

Molecules shown so far that have a furan ring, fused or not:
molecule,EPAC1 ag val
O=C(c1ccco1)N1CCC2(CCCN(c3ccncc3)C2)CC1,-81%[inhibitor]
COC(=O)c1ccc(C(=O)N2CCc3c(C(=O)NC(C)c4ccco4)c(OC)cc(=O)n3CC2)cc1 (stereo not drawn),-5%
Cc1cnc(CNc2ccnc(-c3ccoc3)n2)cn1,-46%[inhibitor]

Source: PubChem BioAssay
